Bfl-1 A1 inh: caspase 3/7 activation in MEF A1-2A-BIM cells, primary screen, A1 inhibitor project, cell-based, luminescence, HTS; Caspase-Glo 3/7 luminescence, 3 h; percent of clofoctol response, vehicle zero; caspase activation, % (test concentration not listed); actives 0.066% (n = 330,000); AID 2462, 2010;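 active = over half of replicate activation scores above 10%, or exactly half above 10 with the replicate mean above 10; inconclusive = replicate mean below 10 yet half the replicates above 10; inactive = over half of replicates below 10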;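 also: wells of about 30 µL received 50 nL stock; many hits fall short of the cut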
RanGTP-Imp inh: inhibitors of RanGTP-importin-beta interaction, primary screen, biochemical, FRET, CFP-Ran, YFP-importin-beta, homogeneous. cell-free CFP-Ran/YFP-importin-beta FRET ratio. Ran GTPase (GTP-bound) - importin-beta complex. inhibition, % (test concentration not listed). actives 1.1% (n = 300,000);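 active = most replicates above 15%; inconclusive = exactly half above 15%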;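 also: 0% = DMSO wells and 100% = Ran loaded with GDP instead of GTP; wells of about 40 µL received 100 nL stock; the first replicate is given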
T cruzi inh: inhibitors of intracellular T. cruzi growth, primary screen, luminescence, NIH3T3 host cells | T. cruzi beta-gal in NIH3T3, 90 h | inhibition, % (test concentration not listed) | actives 1.4% (n = 300,000) | AID 1885, 2009;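 active = mean inhibition across valid replicates above about 55%, limit read from the data; inconclusive = mean below that limit but half or more replicates reach it; inactive = mean below it, under half of replicates reach it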;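 also: signal also drops with host cell toxicity which is not excluded here; 0% = plate median of DMSO wells and 100% = zero luminescence signal; higher percent means less beta-gal luminescence so fewer parasites; stock transfer was 50 nL into about 50 µL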
UCH37 DUB inh: inhibitors of human UCH37 deubiquitinase, primary screen, biochemical, Ub-AMC cleavage, fluorescence. actives 0.33% (n = 330,000). purified proteasome/UCH37. Ubiquitin carboxyl-terminal hydrolase isozyme L5 (Homo sapiens), Q9Y5K5. inhibition, % (concentration not given with the values);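 active = mean of two replicates above 20%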;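 also: 0% = compound-free wells with enzyme and 100% = wells lacking proteasome; stock transfer was 100 nL into about 20 µL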
Target sequence (Q9Y5K5 whole entry, looked up): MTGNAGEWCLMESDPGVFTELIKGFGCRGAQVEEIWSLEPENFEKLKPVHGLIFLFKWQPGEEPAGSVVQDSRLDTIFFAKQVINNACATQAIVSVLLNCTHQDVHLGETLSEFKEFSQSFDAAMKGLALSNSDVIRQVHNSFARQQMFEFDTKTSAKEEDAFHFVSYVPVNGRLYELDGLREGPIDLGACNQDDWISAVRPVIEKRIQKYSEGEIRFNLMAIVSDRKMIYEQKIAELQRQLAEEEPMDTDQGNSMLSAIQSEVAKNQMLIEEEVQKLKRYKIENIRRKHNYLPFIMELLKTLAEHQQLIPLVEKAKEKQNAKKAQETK
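System: Proteasome-associated human UCH37 deubiquitinase; Input: 0.15 nM proteasome in added enzyme buffer; Also added: Ub-AMC substrate from 1 µM stock; Incubation: 30 min compound-proteasome preincubation then 25 min substrate reaction, room temperature; Detection: fluorescence, ex 355 nm, em 460 nm; Read-out: % inhibition of Ub-AMC cleavage fluorescence; Benchmarks: no-proteasome and no-compound wells.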
LANA-H2B inh: blockers of LANA interaction with H2A/H2B – biochemical, FP readout, HTS, primary screen; actives 0.6% (n = 320,000); inhibition, % (concentration not given with the values); cell-free LANA-H2A/H2B peptide, fluorescence polarization; AID 2629, 2010; in the data active = inhibition mostly above about 10%, no sharp cut-off; inactive = mostly below about 6.7%;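 also: stock transfer was 7.5 nL into about 10 µL; 0% = median of vehicle wells and 100% = median of positive control wells; one replicate is shown; the record names a cut of 25% in any replicate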
Beta cell apopt: inhibitors of cytokine-induced beta cell apoptosis, primary screen, luminescence | INS-1E cytokine-induced death, ATP luminescence, 48 h; percent of positive-control rescue, neutral wells zero | protection from apoptosis, % (concentration not given with the values) | actives 0.8% (n = 300,000);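 active = all replicates at 75% or more, or half of them and the mean; inconclusive = half reach 75% but not the mean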;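 also: 0% = cytokine-treated negative control wells and 100% = positive control rescue; higher means more ATP so stronger rescue from cytokine killing; wells of about 40 µL received 100 nL stock; the first replicate is given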
Beta2AR agonist: beta2AR agonists driving receptor internalization, primary screen, cell-based, FAP fluorogen, flow cytometry. Beta-2 adrenergic receptor (Homo sapiens), P07550. Am2.2-beta2AR cells; reference of the scale not given here. response, % (concentration not given with the values). actives 0.43% (n = 340,000). AID 504454, 2011;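 active = response above a set limit, near 3 SD of response in nonfluorescent compounds, cut at about 42% in these data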;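 also: stock transfer was 100 nL into about 11 µL; a reference agonist was the positive control; negative values mostly stem from fluorescent compounds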
Target sequence (P07550 whole entry, looked up): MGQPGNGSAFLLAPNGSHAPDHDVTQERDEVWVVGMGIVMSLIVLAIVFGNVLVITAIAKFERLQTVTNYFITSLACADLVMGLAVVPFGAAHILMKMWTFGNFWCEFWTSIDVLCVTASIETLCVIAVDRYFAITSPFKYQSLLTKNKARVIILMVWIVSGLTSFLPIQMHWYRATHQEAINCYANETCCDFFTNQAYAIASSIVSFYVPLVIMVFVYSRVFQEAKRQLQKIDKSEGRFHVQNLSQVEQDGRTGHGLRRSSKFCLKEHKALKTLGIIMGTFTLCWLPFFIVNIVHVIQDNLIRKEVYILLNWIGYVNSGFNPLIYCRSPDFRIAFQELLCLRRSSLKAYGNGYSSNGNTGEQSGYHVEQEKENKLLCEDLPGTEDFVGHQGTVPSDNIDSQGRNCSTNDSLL
Calb FLC: C. albicans growth inhibition with fluconazole, primary screen, CaCi-2 strain, Alamar Blue fluorescence; C. albicans CaCi-2 (fluconazole-resistant clinical isolate) + fluconazole, 48 h; growth inhibition, % (concentration not given with the values); actives 0.57% (n = 300,000);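 active = most replicates above 75%; inconclusive = exactly half above 75%; inactive = most below 75%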;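 also: all wells also contain fluconazole at 8 µg/ml as a sub-toxic cotreatment; 0% = median of DMSO wells and 100% = median of geldanamycin control wells; wells of about 8 µL received 7.5 nL stock; the first replicate is given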
* = called active by the depositor; ? = inconclusive; / = no result given.

SMILES	Bfl-1 A1 inh	RanGTP-Imp inh	T cruzi inh	UCH37 DUB inh	LANA-H2B inh	Beta cell apopt	Beta2AR agonist	Calb FLC
CN(C)c1nc(N(C)C)nc(N(C#N)Cc2ccc(Cl)cc2)n1	-0.4	3.1	11	-2.6	0.7	1	-2	2
O=C(NC1CC(=O)N(c2ccc(Cl)cc2)C1)C1CC1 (stereo not given)	-0.5	-0.2	0	1.2	2.1	/	-4	-6
CCCc1cc(=O)[nH]c(SCC(=O)N2CCC(C)CC2)n1	0.6	-3.7	-19	0.6	2.5	-6	5	0
NC(=O)C(CC(=O)O)NC(=O)[C@@H]1CCCNc2c(I)cc([N+](=O)[O-])cc2C(=O)N[C@@H](CO)C(=O)N[C@@H](Cc2ccc(O)cc2)C(=O)N1 (stereo not given in full)	-0.3	/	/	3.4	5.1	-6	-2	/
COc1cccc(OC)c1C(=O)Nc1ccc2c(c1)Cc1ccccc1-2	-0.1	1.6	18	2.6	-1.1	6	2	-4
COc1ccc2oc(C(=O)OCC(=O)N(C)CC(=O)Nc3ccc(C)cc3)c(C)c2c1	0.2	-4.4	-6	-22	2.6	-1	-2	-22
Cc1cc(OC(=O)c2c(Cl)cccc2Cl)nc(C)n1	-0.1	-0.5	-5	3.6	6.2	-6	5	30
Cc1cc(NS(=O)(=O)c2ccc(NC(=O)c3cc(-c4cccnc4)nc4ccc(Cl)cc34)cc2)no1	0.1	-5.0	-12	-0.7	-0.1	-1	5	-8
CC(C)Cn1c(=O)c2ccccc2n2c(CCC(=O)O)nnc12	0.0	5.3	-12	-1.3	2.8	-10	0	-3
COc1cc(NC(=O)c2cccs2)ccc1NC(=O)Cc1ccccc1	0.9	1.7	-11	-0.3	-0.1	1	-6	3
COc1cccc(-c2csc(N3CCN(Cc4ccccc4)CC3)n2)c1	-0.1	0.8	19	-0.5	1.2	-9	-9	-17
CNC(=S)N(CCc1ccccc1)Cc1cc2cc(OC)c(OC)cc2[nH]c1=O	-0.8	-3.0	6	-66	-5.9	-5	-4	-1
CC(Oc1ccc(F)cc1)c1ccnc2nc(/N=C/N(C)C)nn12 (stereo not given)	0.1	4.2	3	/	-0.3	-2	8	3
COc1ccc(OC)c(-c2csc(N3CCC(c4ccccc4)CC3)n2)c1	1.1	-4.9	23	1.3	-0.2	-5	0	32
O=c1c2ccccc2nc2n1CCO2	0.3	3.3	-10	1.3	-2.1	-3	-8	-7

2 compounds from above, showing only Beta cell apopt, T cruzi inh and UCH37 DUB inh:
structure,Beta cell apopt,T cruzi inh,UCH37 DUB inh
COc1cccc(OC)c1C(=O)Nc1ccc2c(c1)Cc1ccccc1-2,6,18,2.6
COc1ccc2oc(C(=O)OCC(=O)N(C)CC(=O)Nc3ccc(C)cc3)c(C)c2c1,-1,-6,-22

New compounds follow:
SMILES	Bfl-1 A1 inh	RanGTP-Imp inh	T cruzi inh	UCH37 DUB inh	LANA-H2B inh	Beta cell apopt	Beta2AR agonist	Calb FLC
CCOC(=O)C1CCN(CC(C)(C)NS(=O)(=O)c2ccc(Cl)cc2)CC1	0.2	8.5	-1	6.1	8.8	1	1	-3
O=C(C1CCN(C2CCN(Cc3ccc4c(c3)CCO4)CC2)CC1)N1CCOCC1	0.4	0.5	7	-0.5	-0.9	-5	0	-5
Cc1ccccc1C(=O)NNC(=O)c1cccc([N+](=O)[O-])c1	0.0	3.1	-5	1.2	3.4	-3	5	16
CCOc1ccc(-n2cnc3sc(C)c(C)c3c2=O)cc1	-0.3	-1.7	5	1.3	-6.1	1	-5	2
COC(=O)COc1nc(C)c(Br)c(OC)n1	0.4	-3.0	-1	3.3	1.6	-6	5	4
COc1ccc(/C=N/NC(=O)C(=O)N2CCCCCC2)cc1O	0.8	3.0	0	/	-0.1	/	-4	2
COc1ccc(CCN2CC(C(=O)NCCN3CCCC3=O)CCC2=O)cc1 (stereo not given)	-1.0	1.0	-5	5.7	-3.5	-6	3	-5
O=C(OC(C(=O)NCC1CCCO1)c1ccccc1F)c1ccco1 (stereo not given)	0.5	-2.2	-3	4.7	-4.5	-1	2	-3
O=C(O)CCN(CCC(=O)O)S(=O)(=O)c1ccccc1	-0.8	1.5	-2	0.9	0.1	-9	-4	-4
CN(C(=O)C1CCC(=O)N(Cc2cccc(F)c2)C1)C1CCCCC1 (stereo not given)	-0.5	4.3	-7	0.1	-4.9	-3	-4	-17
CCC1OC(=O)C(C)C(OC2C[C@@](C)(OC)C(O)C(C)O2)C(C)C(O[C@@H]2OC(C)CC(N(C)C)C2O)[C@](C)(O)CC(C)C(=NOCOCCOC)C(C)C(O)[C@]1(C)O (stereo not given in full)	0.1	/	/	3.1	2.4	3	-4	/
Cc1ccc(C(=O)C2CCN(S(=O)(=O)c3ccccc3C(=O)O)CC2)cc1	/	2.9	0	/	/	/	-5	0
CCCCN(C(=O)CSc1nn(-c2ccc(F)cc2)c(=S)s1)c1c(N)n(CCCC)c(=O)[nH]c1=O	0.8	-0.7	-15	-1.7	3.1	0	-1	/
COc1ccc(CNC(=O)c2csc(Cc3ccccc3)n2)cc1	-0.2	-2.4	12	2.5	5.3	-5	-4	-10
COCCNC(=S)Nc1ccc(N2CCCCC2)cc1	0.2	1.2	-7	-1.3	-1.6	-3	14	1

Compounds from the list above containing a furan ring, fused or not (2):
SMILES	Bfl-1 A1 inh	RanGTP-Imp inh	T cruzi inh	UCH37 DUB inh	LANA-H2B inh	Beta cell apopt	Beta2AR agonist	Calb FLC
COc1ccc2oc(C(=O)OCC(=O)N(C)CC(=O)Nc3ccc(C)cc3)c(C)c2c1	0.2	-4.4	-6	-22	2.6	-1	-2	-22
O=C(OC(C(=O)NCC1CCCO1)c1ccccc1F)c1ccco1 (stereo not given)	0.5	-2.2	-3	4.7	-4.5	-1	2	-3

Compound profiles (already shown). Order of screens: Bfl-1 A1 inh	RanGTP-Imp inh	T cruzi inh	UCH37 DUB inh	LANA-H2B inh	Beta cell apopt	Beta2AR agonist	Calb FLC
CN(C(=O)C1CCC(=O)N(Cc2cccc(F)c2)C1)C1CCCCC1 (stereo not given) is listed as -0.5	4.3	-7	0.1	-4.9	-3	-4	-17
COc1ccc(/C=N/NC(=O)C(=O)N2CCCCCC2)cc1O is listed as 0.8	3.0	0	/	-0.1	/	-4	2

Individual results from the list.
COCCNC(=S)Nc1ccc(N2CCCCC2)cc1 | Bfl-1 A1 inh = 0.2
COc1ccc(CNC(=O)c2csc(Cc3ccccc3)n2)cc1 | Beta2AR agonist = -4

Other results
SMILES	Bfl-1 A1 inh	RanGTP-Imp inh	T cruzi inh	UCH37 DUB inh	LANA-H2B inh	Beta cell apopt	Beta2AR agonist	Calb FLC
COc1ccc(-n2cccc2/C=C2\C(=N)N3N=C(C(C)C)SC3=NC2=O)cc1	1.5	-4.4	0	0.3	-0.4	1	-8	98*
O=C(NN1CCOCC1)c1ccc(Cl)c(Cl)c1	-0.4	3.0	-3	2.6	5.3	1	7	-5
COc1ccc(C2Cc3ccccc3C(=O)O2)cc1 (stereo not given)	1.6	-1.2	-16	-1.1	-1.0	-7	2	-6
COc1ccccc1/C=C/C(=O)NCC(=O)N/N=C/c1cc(Br)ccc1OC	0.5	-1.0	28	/	-0.6	3	-3	-5
C[C@@H]1CN([C@H](C)CO)C(=O)c2cccc(NC(=O)Nc3ccc(C(F)(F)F)cc3)c2O[C@H]1CN(C)S(=O)(=O)c1cccs1	1.3	/	/	0.3	-2.8	4	7	/
Cc1cccc(OCC(=O)NNC(=O)c2ccccc2OCc2c(C)noc2C)c1	-0.6	/	/	-0.3	-2.6	-5	-2	/
CC(=O)c1cccc(NC(=O)CN(c2ccc(C)cc2)S(=O)(=O)c2cccc3nonc23)c1	-0.7	-1.2	12	3.2	-3.1	7	-6	-1
Cc1ccc2nc(N(CCCN(C)C)C(=O)c3sc4ccccc4c3Cl)sc2c1	-0.1	3.2	10	2.6	-8.3	-4	6	-17
O=C(CNCCc1ccccc1)N1CCc2ccccc2C1	-0.8	2.4	2	3.7	3.2	-4	-4	9
CSc1cccc(NC(=O)Cc2ccccc2[N+](=O)[O-])c1	0.5	6.0	-10	2.3	-3.5	-8	2	-30
CCOC(=O)c1c(NC(=O)CN(CC)CC)sc2c1CCC2	-1.2	1.5	24	1.4	-0.6	1	13	3
COc1cc(C(=O)NCc2ccccn2)ccc1OCc1c(C)noc1C	-0.2	5.2	-14	/	-1.1	1	-12	-16
CN1CCCN(c2ncnc3scc(-c4ccc(F)cc4)c23)CC1	2.0	5.6	26	1.0	-4.2	-4	0	8
CCOc1ccc2ccccc2c1/C=N/NC(=O)CC1(C)OCCCO1	0.8	-0.8	-1	/	0.7	0	-7	-15
CC(C)=NOCC(=O)Nn1c(COc2ccccc2)nc2ccccc2c1=O	-0.3	-10	-20	2.1	5.3	4	0	1
COc1ccc(NC(=O)CC2C(=O)N(c3ccccc3)C(=O)N2Cc2ccco2)cc1 (stereo not given)	-0.5	-0.6	-3	-0.6	2.5	3	6	?
COCCN(C(=O)COC(=O)C12CC3CC(CC(Cl)(C3)C1)C2)c1c(N)n(Cc2ccccc2)c(=O)[nH]c1=O	0.8	-1.9	-6	1.4	4.6	-11	6	8
O=c1c2ccccc2nc(SCc2cn3ccsc3n2)n1-c1ccccc1F	-0.2	-6.2	12	4.9	8.3	6	-13	-7
COC(=O)c1c(NC(=O)COc2ccc(Cl)cc2)sc2c1CC(C)(C)NC2(C)C	-0.2	1.3	65*	-30	-28	102*	0	32
CCCn1c(C)cc(/C=C(\C#N)C(=O)OCC(=O)NC(=O)NC(C)(C)C)c1C	0.9	-0.2	1	-0.7	-1.4	1	9	-8
CC(C)c1ccc(N(C(=O)c2csnn2)C(C(=O)NC(C)(C)C)c2ccncc2)cc1 (stereo not given)	0.4	-0.4	-13	3.0	-5.0	-5	-2	-3
CCCCOCCCNC(=O)c1ccc(OCC)cc1	0.9	7.7	-30	2.5	2.6	/	-3	-7
CCOC(=O)c1nc2ccccc2nc1C	-0.5	-0.9	2	8.7	-3.5	-3	2	-6
Cc1ccc(C(=O)NNC(=O)c2cccc(C)c2)cc1	-1.1	-4.3	20	5.3	2.1	-4	-1	-3
Cc1cc(NC(=O)COC(=O)CCS(=O)(=O)c2ccc(C)c(C)c2)no1	-0.5	1.6	-14	2.8	2.4	-5	3	-1
Cc1c(O)ccc2c(=O)c(-c3nncn3-c3ccccc3)coc12	-0.2	-0.1	/	2.8	-2.8	-2	-23	3
Cc1cccc(Nc2nc3ccccc3n3nnnc23)c1	0.0	-3.9	-1	-8.9	0.9	1	-1	-8
CC(C)c1ccc2nc(NC(=O)C3CC3)sc2c1	-0.4	3.5	0	0.9	2.2	16	2	-14
O=C(C1CCN(S(=O)(=O)c2cccnc2)CC1)N1CCN(c2cccc(Cl)c2)CC1	0.2	1.4	6	2.5	1.5	1	-1	7

Assay outcomes deposited in PubChem BioAssay by several laboratories.
